# VDR inhibitor – Inhibitors of the vitamin D receptor (VDR): qHTS | Vitamin D3 receptor (Homo sapiens), P11473 | VDR-SRC2-3 peptide fluorescence polarization, 2 h | Potency, µM, for the others: max response, negative = inhibition, hits mostly inhibitors | actives 0.93% (n = 400,000); active means well fitted inhibition curve with a large enough effect; inconclusive means small, poorly fitted or top-dose-only effect, or another doubt; inactive means no such curve, though single readings can be large or run the other way; further: series mostly up to about 120 µM
# Target sequence (P11473 whole entry, looked up): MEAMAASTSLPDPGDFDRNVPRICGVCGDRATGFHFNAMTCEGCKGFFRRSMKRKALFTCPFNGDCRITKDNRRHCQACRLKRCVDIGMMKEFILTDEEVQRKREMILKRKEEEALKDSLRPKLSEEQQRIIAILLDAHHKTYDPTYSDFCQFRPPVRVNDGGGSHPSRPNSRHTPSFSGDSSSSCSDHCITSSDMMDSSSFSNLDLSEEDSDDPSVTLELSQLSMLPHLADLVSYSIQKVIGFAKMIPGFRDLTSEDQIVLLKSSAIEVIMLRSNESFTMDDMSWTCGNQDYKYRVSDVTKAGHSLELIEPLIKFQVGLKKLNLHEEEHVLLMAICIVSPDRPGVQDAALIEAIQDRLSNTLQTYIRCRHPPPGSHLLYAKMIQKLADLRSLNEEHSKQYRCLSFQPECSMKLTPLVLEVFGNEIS
#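 Two reagent solutions held at 4 deg C in the dark were dispensed, compounds pinned at 23 nl, and the mixture incubated 2 h at room temperature. Read-out: fluorescence polarization of VDR–SRC2-3 peptide binding.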
# * hit, by the source's call; ? = inconclusive; & = joins results of further samples. On the % scale 0 is the no-effect control and ±100 the full control effect; potency means the concentration at half of the fitted maximal effect. Not all compounds are listed. The share of hits here may be higher or lower than overall.
# Sample of the layout:
molecule,VDR inhibitor
COc1ccc(CCn2c(C)c(C(C)=O)c3cc(OC(=O)c4ccco4)ccc32)cc1OC,4%
Cc1cc(-c2cccc(Br)c2)c(C#N)c(N)n1,-15%
COc1cc(OC)c(NC(=O)c2ccco2)cc1Cl,7%
CCN(CC)C(=O)C(C)OC(=O)COc1ccc(Cl)cc1Cl (configuration not stated),-1%

# This part in full, from the first entry:
molecule,VDR inhibitor
COc1ccc(CCn2c(C)c(C(C)=O)c3cc(OC(=O)c4ccco4)ccc32)cc1OC,4%
Cc1cc(-c2cccc(Br)c2)c(C#N)c(N)n1,-15%
COc1cc(OC)c(NC(=O)c2ccco2)cc1Cl,7%
CCN(CC)C(=O)C(C)OC(=O)COc1ccc(Cl)cc1Cl (configuration not stated),-1%
CC(C)c1ccc(S(=O)(=O)N2CCN(C(C)C(=O)N3CCCC3)CC2)cc1 (configuration not stated),4%
CCCCCOc1ccc(C(=O)N(Cc2ccco2)C2CCS(=O)(=O)C2)cc1 (configuration not stated),4%
O=C(CN1C(=O)S/C(=C\c2ccc(O)c([N+](=O)[O-])c2)C1=O)Nc1ccc(N2CCOCC2)cc1,-10%
CCCCCCCC/C=C\CCCCCCCC(=O)OC[C@H](CO)OC(C)=O,2%&3%
CCOc1ccc(S(=O)(=O)N2CCN(C(=S)NCc3ccco3)CC2)cc1,-13%
O=C(Nc1ccc(F)cc1)c1oc2ccccc2c1NC(=O)C1CCCCC1,-4%
Cc1ccc(C(=O)c2nc(C(=O)NCCO)nc3ccccc23)cc1,-22%
O=C(c1cccc(COc2ccc(Cl)cc2Cl)c1)N1CCN(c2ccccn2)CC1,-2%
O=C(Nc1oc2ccc(Cl)cc2c(=O)c1-c1ccc(F)cc1)c1ccco1,-3%
CC(=O)N1N=C2/C(=C/c3ccccc3)CCCC2C1c1ccccc1 (configuration not stated),71µM*
FC(F)Oc1ccc(-c2c[n+]3c(n2-c2ccccc2)CCCCC3)cc1,2%
CCOC(=O)C1=C(COC(=O)/C=C/c2cc(OC)c(OC)c(OC)c2)NC(=O)NC1C (configuration not stated),3%
CCOC(=O)c1ccc(-n2c(C)nc3c(cnn3-c3ccccc3C)c2=O)cc1,-3%
O=C(CC12CC3CC(CC(C3)C1)C2)Nc1nncs1,11%
Cc1ccc2oc(-c3ccc(NC(=O)c4oc5ccc(Cl)cc5c4C)cc3)nc2c1,-16%
O=C(NCCN1CCOCC1)c1ccc(CSc2nc3ccncc3n2Cc2ccc(F)cc2)cc1,-4%
Cn1c(NCC(O)c2ccccc2)nc2c1c(=O)n(Cc1ccc(Cl)cc1)c(=O)n2C (configuration not stated),26%
COc1ccc(N(C(=O)c2snc(C(N)=O)c2N)C(C(=O)NC2CCCC2)c2ccc(F)cc2)c(OC)c1 (configuration not stated),?
O=C(c1ccc(Cl)c(Cl)c1)N1CCOCC1,2%
NC(=O)c1ccc(NCCc2ccccc2)c([N+](=O)[O-])c1,-12%
Cc1ccc(C)c(Cn2c(=O)n(CCC(=O)NCc3ccco3)c(=O)c3ccccc32)c1,6%
COc1ccc(-c2cc(C3C4C=CCCC4(C)C(=O)N3Cc3ccccc3)ccc2F)cc1 (configuration not stated),-13%
CN(C)c1cccc(C(=O)OC(C(=O)Nc2ccc(Cl)cc2C(F)(F)F)c2ccccc2)c1 (configuration not stated),-27%
Cc1ccc(S(=O)(=O)N2C(=O)CCC2C(=O)O/N=C(\N)c2ccccc2)cc1 (configuration not stated),5%
CCN1CCN(C(=O)Nc2cc(Cl)ccc2OC)CC1,0%
Cc1cc(C)c(C)c(S(=O)(=O)NCC(=O)Nc2ccccc2F)c1C,-21%

# Later entries
molecule,VDR inhibitor
C/C(=N\NC1=N[C@H]2CS(=O)(=O)C[C@H]2S1)c1ccccc1,4%
CSc1sc(-c2nnc(SCC(=O)Nc3ccc(Cl)cc3)n2C)c2c1C=CCC2,1%
O=C(CS(=O)(=O)c1cccc2nsnc12)N1CCN(c2ccc(F)cc2)CC1,8%
Cc1ccc(-n2nc(-c3cccnc3)cc2C(=O)N2CCOCC2)c(C)c1,-7%
CN(C)S(=O)(=O)c1ccc(NC(=O)N2CCN(c3cccc(C(F)(F)F)c3)CC2)cc1,-10%
Cc1ccc(NC(=O)c2sc3nc(-c4ccc(F)cc4)ccc3c2N)cc1F,-13%
O=C(CSc1ccc(Cl)cc1)Nc1ncccn1,-21%
COc1ccc(NC(=O)N2CCN(c3ccc([N+](=O)[O-])cc3)CC2)cc1OC,9%
CCOC(=O)C1CCN(S(=O)(=O)c2ccc(-c3nc4ccccc4s3)s2)CC1,-2%
COc1cc(CNCc2ccc(OC)cc2OC)cc(OC)c1,3%
Cc1ccc(C(=O)N/C(=C\c2ccccc2)C(=O)NCCN2CCOCC2)cc1,24%
COc1ccc(C2CC(c3ccccc3)Nc3ncnn32)cc1 (configuration not stated),-7%
C=COC(=O)c1sc2nc(C)cc(C)c2c1N,-1%
Cc1cc(C)cc(OC(=O)CS(=O)c2ccc(C(F)(F)F)cc2[N+](=O)[O-])c1 (configuration not stated),20µM*
COc1cc(/C=C/C(=O)c2ccc(C)cc2)ccc1OCC#N,50µM*
COc1ccc(NC(=S)N(CCc2ccc(OC)c(OC)c2)Cc2ccccn2)cc1,1%
Cc1cc(=O)oc2ccc(OCC(=O)N3CCc4ccccc43)cc12,-24%
CCOc1ccc(NC(=S)Nc2cc(C)[nH]n2)cc1,-15%
COc1ccc2nc(N=NC3=C(O)CC(C)(C)CC3=O)sc2c1,-10%
Cc1ccc(-c2nc(-c3cccnc3)no2)c(C)c1,-18%
COc1ccccc1NC(=O)c1ccc2c(c1)nnn2C,-18%
CN(C)c1ccc(CNC(=O)c2cc(S(=O)(=O)N3CCCC3)cn2C)cc1,-4%
CCOC(=O)c1ccccc1NC(=O)CSc1nc(N)cc(N)n1,-12%
Cc1cccc(NC(=O)c2cc3ccccc3o2)c1,1%
Cc1noc(C)c1COc1ccccc1C(=O)N1CCN(S(=O)(=O)c2cccc(Cl)c2)CC1,?
Cc1ccc(OCC(=O)Nc2cc(S(=O)(=O)N3CCOCC3)ccc2Cl)c([N+](=O)[O-])n1,-20%
O=C1CCCc2[nH]c(-c3ccccc3)nc21,13%
O=c1c2ccccc2nc(-c2ccco2)n1/N=C/c1ccccc1O,7%
CCn1c(COc2ccc(Cl)cc2)nnc1SC1CCc2ccccc2C1=O (configuration not stated),-22%
CC(C)CCn1c(CN2CC(C)OC(C)C2)nc2c1c(=O)n(C)c(=O)n2C (configuration not stated),-12%

# Arranged by SMILES length (rising): part of the list above
molecule,VDR inhibitor
O=C(c1ccc(Cl)c(Cl)c1)N1CCOCC1,2%
COc1ccccc1NC(=O)c1ccc2c(c1)nnn2C,-18%
CCOC(=O)c1ccccc1NC(=O)CSc1nc(N)cc(N)n1,-12%
O=c1c2ccccc2nc(-c2ccco2)n1/N=C/c1ccccc1O,7%
Cc1cc(C)c(C)c(S(=O)(=O)NCC(=O)Nc2ccccc2F)c1C,-21%
Cc1ccc(-n2nc(-c3cccnc3)cc2C(=O)N2CCOCC2)c(C)c1,-7%
CCCCCOc1ccc(C(=O)N(Cc2ccco2)C2CCS(=O)(=O)C2)cc1 (configuration not stated),4%

# Additional entries follow.
molecule,VDR inhibitor
O=C(NNC(=O)C1CCN(S(=O)(=O)c2ccc(Cl)cc2)CC1)c1ccncc1,-17%
Cc1noc(C)c1-c1cc(N2CCNCC2)ncn1,?
Nc1ccccc1C(=O)NC12CC3CC(CC(C3)C1)C2,-16%
CCN(CC(=O)Nc1ccc2c(c1)OCCO2)C(=O)/C=C/c1ccc(OC)c(OC)c1,-17%
O=C(CSc1ncnc2ccccc12)Nc1ccc2c(c1)OCCO2,-11%
O=C(NC1CCN(Cc2ccccc2)CC1)c1ccc2c(c1)OCCCO2,11%
Cc1ccc(C(=O)Nc2nc3ccc(S(C)(=O)=O)cc3s2)cc1C,-4%
COC(=O)CC1=NN(c2ccccc2)C(=O)/C1=C\c1ccc(OC)cc1,-25%
CCCCOc1ccc(C(O)C(CN2CCOCC2)c2ccccc2)cc1 (configuration not stated),-14%
Cc1ccccc1NC(=S)NCC1CCN(C(C)c2ccccc2)C1 (configuration not stated),-12%
CN(C)c1ccc(NC(=O)C(=O)NCCOc2ccccc2)cc1,-17%
O=S(=O)(c1cccc(Cl)c1)N1CCN(c2nc(-c3cccs3)nc3ccccc23)CC1,-15%&-13%
C=CCOc1ccc(C[C@H](N)C(=O)NC[C@H]2O[C@@H](n3cnc4c(N)ncnc43)[C@H](O)[C@@H]2O)cc1,-22%
CCCn1nnnc1SCC(=O)Nc1ccc(F)cc1,-4%
O=C1C2C3C=CC(C4CC34)C2C(=O)N1c1cccc2ccccc12 (configuration not stated),12%
Cc1c(-c2ccn[nH]2)cc(NC(=O)c2ccc(Cl)cc2)c(=O)n1N,12%
Cc1ccc(S(=O)(=O)N2[C@@H](c3ccccc3F)C(C(=O)O)=CC[C@H]2c2ccc(Cl)cc2)cc1,-19%
CN1CCN(/N=C/c2ccc(-c3ccc([N+](=O)[O-])cc3Cl)o2)CC1,-8%
Cc1c(Cl)cccc1-n1c(SCC(=O)NCc2cccs2)nnc1-c1ccncc1,17%
Cc1oc(C(=O)O)cc1CSCc1cc(C(=O)O)c(C)o1,-11%
COc1ccc(NC(=O)CSCC(=O)Nc2sccc2C#N)cc1,-11%
Cc1ccccc1CN1CCNC(=O)C1CC(=O)NC1CCCCCCC1 (configuration not stated),17%
COCCn1c(SCC(=O)NCc2ccco2)nc2cccnc21,-1%
COc1cc(Cl)c(C)cc1NC(=O)c1sc2nc3n(c(=O)c2c1C)CCCCC3,5%
CN(C)c1nc(N2CCOCC2)nc(N(c2ccccc2)c2ccccc2)n1,-6%
O=C(N/N=C/c1ccoc1)c1cc(Br)ccc1O,-9%
CC(=O)Oc1ccc2c(=O)oc(-c3ccccc3)nc2c1,-6%
C/C(=N\NC(=O)C(O)c1ccccc1)c1ccc(C)s1 (configuration not stated),-11%
CC(OC(=O)c1ccc(Cl)cc1)C(=O)NCc1ccc2c(c1)OCO2 (configuration not stated),3%
CCc1ccc(-n2c(SCc3ccccc3F)nc3[nH]ncc3c2=O)cc1,18%

# The listing continues:
Molecule | VDR inhibitor
CN(CC(=O)NCc1ccc(F)cc1)CC(=O)Nc1ccc(Cl)c(C(F)(F)F)c1 | 17%
COc1cc(NC(=O)c2c(C)oc3ncnc(N4CCCCC4)c23)cc(OC)c1 | -7%
O=C(CSc1ccccn1)Nc1ccc(Cl)cn1 | -21%
COc1ccc(NC(=O)CCCc2ccc(OC)c(C)c2)cc1 | 3%
CC(C)(C)OC(=O)N(CCc1ccccc1)Cc1cccc(OCc2cccc(NC(=O)c3ccccc3)c2)c1 | ?
CC(C)(C)NS(=O)(=O)c1ccc(CCC(=O)O)cc1 | 28%
Cc1ccc(NC(=O)CSc2nc3ccc(NC(=O)COc4ccc(C)cc4)cc3s2)cc1 | 3%
CN(C)C(=O)c1cn(-c2ccccc2)nc1-c1cc2ccccc2oc1=O | 18%
CC1CCCCC1NC(=S)NC(=O)c1sc2ccccc2c1Cl (configuration not stated) | -25%
CCc1ccc(NC(=O)Cn2c3[n+](c4c(F)c(F)ccc42)CCCCC3)cc1 | 5%
Cn1[nH]c(CSc2ccc(Cl)cc2)cc1=O | -9%
COc1ccc(-c2nc3c(=O)n(C)c(=O)nc-3n(C)n2)cc1 | -20%
Cc1ccnc(NS(=O)(=O)c2ccc(N3C(=O)Nc4ccccc4N3O)cc2)c1 | 1%
COc1cccc(Cn2c(=O)n(Cc3ccco3)c(=O)c3oc4ccccc4c32)c1 | -3%
O=C(CSc1nc2c(c(=O)[nH]1)CCC2)Nc1cc(C(F)(F)F)ccc1Cl | -2%
O=C(NCCOC(=O)c1ccc(C(=O)OCCNC(=O)c2cccnc2)s1)c1cccnc1 | 14%
O=C(CSCc1c(Cl)cccc1Cl)N1CCOCC1 | 6%
C=CCN(c1ccccc1C(=O)O)S(=O)(=O)/C=C/c1ccccc1 | -11%
CCn1c2ccccc2c2cc(NC(=O)c3cccc(OC)c3)ccc21 | -11%
CCO[C@@H]1OC(C(=O)NCc2nc3ccccc3[nH]2)=C[C@H](C)[C@H]1CCCO | -15%
COc1ccccc1-c1c(C)oc2cc(OCC(=O)OCc3ccccc3)ccc2c1=O | -8%
Cc1noc(C)c1CSCC(=O)OCC(=O)NC1CCCCC1 | 5%
CC(=O)Nc1ccccc1NS(=O)(=O)c1ccccc1NO | ?
NC(=O)C1CCN(c2nc(-c3cccc(Cl)c3)cs2)CC1 | -15%
Cc1cccc(NC(=O)NC2COc3ccccc3C2)c1C (configuration not stated) | 12%

# Continued:
Molecule | VDR inhibitor
CCOC(=O)Cn1nnnc1C(C(C)C)N(Cc1cc2c(C)cc(C)cc2[nH]c1=O)C1CCCC1 (configuration not stated) | 5%
Cn1c2c(c(=O)n(C)c1=O)C(c1ccc(C(F)(F)F)cc1)CC(=O)N2 (configuration not stated) | 4%
C=CCn1cc(C(=O)OC)c(=O)c2cc(S(=O)(=O)N3CCC(C)CC3)ccc21 | 5%
Cc1cccc(C(=O)N2CCC(N3CCN(Cc4ccc(F)cc4)C(=O)C3=O)CC2)c1 | 7%
Oc1ccc(C=Nc2ccc(N3CCOCC3)cc2)c(O)c1 | 1%
CC(=O)Nc1ccc(NC(=O)C2(c3cccs3)CCOCC2)cc1 | 3%
COc1ccc(NC(=O)c2oc3c(c2C)-c2nn(Cc4c(F)cccc4Cl)cc2CC3)c(OC)c1 | 6%
COCc1cc(=O)[nH]c2cc(NC(=O)c3cccc(OC)c3)c(C)cc12 | 3%
O=C(O)c1ccccc1C(=O)Nc1ccc(Br)c2cccnc12 | 9%&4%
Cc1cc(Br)cc(C)c1OCC(=O)Nc1ccc(S(=O)(=O)Nc2ncccn2)cc1 | 3%
COc1ccc(S(=O)(=O)N2Cc3ccccc3CC2C(=O)O)cc1 (configuration not stated) | -4%

# High-throughput results as filed in PubChem BioAssay.
